Source: PubChem
Prx2 Sm inh = blocks S. mansoni peroxiredoxin 2 enzymatic activity. S. mansoni Prx2 activity coupled to TGR/GSH (TGR is thioredoxin glutathione reductase), NADPH fluorescence loss, qHTS; some inactives read as strong as hits. Potency, µM. AID 448. hit rate 0.07% among 65,000; active means full or partial inhibition curve with a strong effect at the top dose; inconclusive means weaker partial or single-point curve; inactive means no accepted curve; further: series up to 57 µM; many of its hits are not listed in these tables
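Enzyme mix: 100 uM NADPH, 25 nM TGR, 700 uM GSH, 50 nM Prx2 in 100 mM phosphate pH 7.4, 10 mM EDTA, 0.01% Tween-20. 15 min RT with compound; NADPH/GSH added, H2O2 starts reaction; NADPH fluorescence read 8 min.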
Anthrax LT inh = anthrax lethal toxin internalization inhibition. Cells, anthrax lethal toxin internalization, FRET ratio (460/530). Potency, µM (highest dose often 40 µM), for the others: at the highest dose activity change, negative = inhibition, usual class: inhibitors. hit rate 0.67% among 70,000. AID 912; active = well fitted falling ratio curve with the 530 nm signal flat; inconclusive = other ratio curves, or a change in one channel alone; inactive = flat curves in the ratio and both channels; the % refers to the ratio; further: on the % scale 0 is the no-effect control and ±100 the full control effect; nearly all actives have a fitted effect of over 50% in size; tested in ME-180 cells; beta-lactamase reporter
Starred values were filed as active, the others as inactive; i = inactive; ? = inconclusive; · = not tested or not shown; & = joins results of further samples; [ ] = dose if it differs, or a comment. Potency means the concentration at half of the fitted maximal effect. Some of the compounds tested; count on the stated rates, not on these rows.

SMILES	Prx2 Sm inh	Anthrax LT inh
Cc1cnn(C(=S)NCc2ccc(Cl)cc2)c1	>57	-16.9%
Cc1ccc(-[n+]2cc(=O)o[nH]2)cc1	>57	-4.0%[8 µM]
CCN(CC)CCNc1nc2c(c(=O)n(C)c(=O)n2C)n1C/C=C(/C)Cl	>57	1.4%
O=S(=O)(Nc1ccccc1F)c1ccc2nsnc2c1	·	3.1%
COc1ccccc1CNC(=O)CCC(=O)Nc1nnc(C)s1	>57	-12.1%
Cc1ccc(-c2nnc(SCC(=O)N3CCCC3)o2)cc1	>57	-8.8%
CCOC(=O)c1ccc(N2C(=O)CC(N3CCN(C(=O)c4ccco4)CC3)C2=O)cc1 (stereo not given)	>57	?
O=C(CSc1ncn[nH]1)c1ccc2c(c1)OCO2	>57	0.3%
CCCSc1nc2c(c(=O)n1-c1ccc(OCC)cc1)SCC2	>57	-8.6%
CCCCn1c(CN2CCN(CCO)CC2)nc2ccccc21	>57	1.8%
CCOC(=O)C(C(=O)OCC)c1cc(Br)c2noc3c2c1C(=O)c1ccccc1-3	0.53*	?
COC(=O)[C@@H]1C2CCC(C(=O)Nc3ccccc3)(CC2)[C@@H]1C(=O)OC	>57	4.6%
O=C(CCCNS(=O)(=O)c1cccc2nsnc12)NCc1ccc(F)cc1	>57	-1.8%
O=C(O)c1nccnc1C(=O)Nc1ccc(Br)cn1	>57	2.3%
O=C(c1ccco1)N1CCC2(CC1)CCN(c1ccc(-c3ccccc3)cc1)CC2	>57	-11.4%

Part of the list above, with values under each structure.
Every second line gives: Prx2 Sm inh | Anthrax LT inh
O=S(=O)(Nc1ccccc1F)c1ccc2nsnc2c1
    · | 3.1%
COc1ccccc1CNC(=O)CCC(=O)Nc1nnc(C)s1
    >57 | -12.1%

Additional entries:
SMILES	Prx2 Sm inh	Anthrax LT inh
O=C(O)CSc1ccc2ccccc2n1	>57	?
O=C(COC(=O)C1COc2ccccc2O1)Nc1ccc2c(c1)CCC2 (stereo not given)	>57	-14.4%
CCCCOc1ccc(C(=O)O)cc1	?	-17.4%
CCn1c(=O)cc(SCC(=O)N2CCN(Cc3ccc4c(c3)OCO4)CC2)c2ccccc21	>57	?
CN(C)S(=O)(=O)c1ccc(C(=O)Nc2ccc(CCC(=O)N3CCCC3)cc2)cc1	>57	-5.7%
COC(=O)c1[nH]c2ccc(Cl)cc2c1NC(=O)CCN1CCN(C2CCCCC2)CC1	>57	-0.7%
CN1CCN(c2ncncc2-c2ccoc2)CC1	>57	-6.4%
COc1ccc(F)cc1S(=O)(=O)Nc1ccc2c(c1)OCCO2	>57	17.0%
C[C@@H](COc1ccc(/C=C\c2ccccc2)cc1)[N+](C)(C)C	>57	?
COc1ccccc1N=c1oc2cc(O)ccc2cc1C(=O)NCC1CCCO1 (stereo not given)	>57	?
CN(C)c1ccc(C(=O)c2ccc(N(C)C)c(N)c2)cc1N	>57	-1.8%
COC(=O)c1ccc(Cl)c(NS(=O)(=O)c2ccc3c(c2)OCCO3)c1	>57	-11.4%
Cc1cc(=O)n2nc(N3CCCC(C(=O)NCc4ccc5c(c4)OCO5)C3)sc2n1 (stereo not given)	>57	-6.8%
Brc1cc2c(cc1COc1ccc(-c3nn[nH]n3)cc1)OCO2	>57	·
CCOC(=O)N1CCN(c2c(N3CCN(c4ccccn4)CC3)c(=O)c2=O)CC1	>57	-9.6%
c1ccc(SCCOCCn2cncn2)cc1	>57	3.1%
CC1CCCN(S(=O)(=O)c2ccc(Br)s2)C1 (stereo not given)	>57	-4.4%
CCCCn1c(=O)n(CC(=O)Nc2c(CC)cccc2CC)c(=O)c2c1nc(CO)n2CCC	>57	10.2%
CN(CC(=O)NCc1ccc(Cl)cc1)S(=O)(=O)c1cccc2nsnc12	>57	2.0%
O=C(c1[nH]o[n+](=O)c1C(=O)c1csc2ccccc12)c1csc2ccccc12	·	?
CCN(CC)C(=O)Nc1cnc2ccccc2c1	>57	-1.5%
CCCN(CCC)[C@@H]1CCc2c(OC)cccc2[C@@H]1C	>57	-14.6%
COc1ccc(C(=O)C(c2ccccc2)N2CCOCC2)cc1 (stereo not given)	>57	1.4%
CC(=O)ON1C(C)(C)CC(OC(=O)c2ccccc2)CC1(C)C	>57	1.1%
CCCCOC(=O)C(C#N)c1nc2ccccc2nc1N1CCOCC1 (stereo not given)	>57	8.0%
CCOC(=O)CSc1nc2ccccc2c(=O)n1C1CCCC1	>57	16.2%
COC(=O)[C@H](C)NC(=O)Nc1ccc(OC(F)(F)F)cc1	>57	-1.4%
c1ccc(-c2cc(-c3cc(-c4ccccn4)[nH]n3)n[nH]2)nc1	>57	-3.4%[8 µM]
COc1ccc(CCn2nnnc2C(C(C)C)N2CCN(c3ncccn3)CC2)cc1OC (stereo not given)	>57	-5.2%
O=C(CCN1CCCCC1)NCC1OCCc2ccccc21 (stereo not given)	>57	-14.7%

Retrieved by structure from the list above:
SMILES	Prx2 Sm inh	Anthrax LT inh
CC1CCCN(S(=O)(=O)c2ccc(Br)s2)C1 (stereo not given)	>57	-4.4%
COc1ccc(C(=O)C(c2ccccc2)N2CCOCC2)cc1 (stereo not given)	>57	1.4%

(next part)
SMILES	Prx2 Sm inh	Anthrax LT inh
CCOC(=O)N1CCN(C(=O)C2CCN(Cc3nc(-c4ccccc4C)oc3C)CC2)CC1	>57	-0.6%
CCOC(=O)N1CCC(N(CCCOC)C(=O)Nc2cccc(OC)c2)CC1	>57	·
CN(Cc1ccco1)c1cc(-c2ccccc2Cl)ncn1	>57	-9.4%
O=P(O)(CN1CCCCC1)CN1CCCCC1	·	-2.4%
CCOC(=O)c1cn(CC)c2ccc(S(=O)(=O)N3CC(C)CC(C)C3)cc2c1=O (stereo not given)	>57	-1.1%
Cc1ccc(N(CC(=O)Nc2ccc(F)c(Cl)c2)S(=O)(=O)c2c(C)noc2C)cc1	>57	?
O=C1C(SCCO)=C(SCCO)C(=O)c2ccccc21	>57	3.98µM*
CCN(C(=O)c1c(OC)cccc1OC)c1nnc(-c2cccnc2)s1	>57	-7.1%
O=C(Nn1cnnc1)C1Cc2ccccc2CN1S(=O)(=O)c1ccc(F)cc1 (stereo not given)	·	-3.0%
CCCCn1c(=N)n(CC(O)COc2ccccc2)c2ccccc21 (stereo not given)	>57	-26.4%
O=C(COC(=O)c1ccco1)Nc1cccc(Br)c1	>57	-8.6%
COCCN1C=C(C(=O)OC)C(c2cc(Br)c(OC)c(OC)c2)C(C(=O)OC)=C1	·	?
CN(C)c1nc2c(c(=O)n(C)c(=O)n2C)n1CC(=O)c1cccs1	>57	8.6%
CCOc1ccc2[nH]c(=O)c(CN(CCO)C(=O)c3ccc(Br)cc3)cc2c1	>57	?
COc1ccc(S(=O)(=O)Nc2cccc(Cl)c2)cc1OC	>57	1.0%
COCCN1C(=O)C(CC(=O)Nc2ccc(C(=O)O)cc2)SC1=Nc1ccccc1 (stereo not given)	>57	12.6%
O=C(Nn1c(=O)[nH]c2ccsc2c1=O)c1ccccc1	>57	11.3%
CCN(CC)S(=O)(=O)c1ccc(Cl)c(C(=O)Nc2nncs2)c1	>57	27.0%
OC(Cn1cncn1)c1ccc(Cl)cc1 (stereo not given)	>57	3.6%
CCC(c1nnnn1Cc1ccccc1)N(Cc1ccco1)Cc1cc2cc(OC)ccc2[nH]c1=O (stereo not given)	>57	-12.4%
Cc1ccc2oc(-c3ccc(NC(=O)c4cccnc4)cc3)nc2c1	>57	-28.2%
O=C(c1ccco1)N1CCN(CC(O)Cn2c3ccccc3c3ccccc32)CC1 (stereo not given)	·	-4.1%
Cc1cc(C)cc(OCCCCCNCCO)c1	>57	-15.6%
O=C(O)CSc1nnc(Cn2cnc3ccccc32)n1CCc1ccccc1	>57	20.2%
O=C(COc1ccc(Cl)cc1)NC1CN2CCC1CC2 (stereo not given)	>57	-14.3%
N[C@@H](Cc1nn[nH]n1)C(=O)O	>57	-12.8%[8 µM]
O=C(c1ccco1)N1CCCN(C(=O)c2ccco2)CC1	>57	·
CCOP(=S)(OCC)SCOC(=O)NCC(=O)OC	>57	0.7%
CCOC(=O)c1ccc(NCc2ccc3c(c2)OCO3)cc1	>57	13.0%
Cc1noc(C)c1C(=O)N1CCC[C@@]2(CCN(C(c3ccccc3)c3ccccc3)C2)C1	>57	-0.2%

Ordered by count of non-hydrogen atoms (lowest first): some entries from above.
SMILES	Prx2 Sm inh	Anthrax LT inh
O=C(c1ccco1)N1CCCN(C(=O)c2ccco2)CC1	>57	·
CCN(CC)S(=O)(=O)c1ccc(Cl)c(C(=O)Nc2nncs2)c1	>57	27.0%
CCC(c1nnnn1Cc1ccccc1)N(Cc1ccco1)Cc1cc2cc(OC)ccc2[nH]c1=O (stereo not given)	>57	-12.4%

The results go on:
SMILES	Prx2 Sm inh	Anthrax LT inh
Cc1onc(-c2ccccc2)c1C(=O)Nc1ccc(S(=O)(=O)N2CCCCC2)cc1	>57	?
CCOc1ccc(C(=O)NC2CCN(C(=O)NCc3ccccc3)CC2)cc1	>57	0.0%
O=C(C1CCN(S(=O)(=O)c2cccc3cccnc23)CC1)N1CCN(C2CCCCC2)CC1	>57	20.4%
COc1ccc(-n2c3c(cc(C(=O)NC4CCSC4=O)c2=O)C(=O)CC(C)(C)C3)cc1 (stereo not given)	·	-3.3%
COC(=O)c1ccc(NC2(C#N)C(=O)Nc3ccccc32)cc1 (stereo not given)	>57	-14.3%
COc1ccc(N(C(=O)C(C)C)S(=O)(=O)c2ccc3c(c2)n(C)c(=O)n3C)cc1	>57	-10.9%
COc1ccc(-c2nn(C)c(=O)c3ccccc23)cc1CNC(=O)CN1CCOCC1	>57	?
CCCCNS(=O)(=O)c1ccc2nc(SCC(=O)Nc3sccc3C#N)[nH]c2c1	>57	?
Cn1c(NC(=O)c2ccc3c(c2)OCO3)cc(=O)n(C)c1=O	>57	7.7%
CN(C)c1ccc(/C=N/n2ncc3ccccc32)cc1	>57	?
COC(=O)c1ccc(NC(=O)CSc2n[nH]c(-c3ccncc3)n2)cc1	>57	29.1%
COC1(OC)N=C(N)C2(C#N)C(c3cccc(Oc4ccccc4)c3)C12C#N (stereo not given)	>57	-2.1%
Cc1cccn2cc(CCNC(=O)c3ccc(Br)o3)nc12	>57	7.7%
COC(=O)N1[C@H](C)C=C[C@]1(Cc1ccccc1)C(=O)O	·	10.1%
COc1ccccc1NC(=O)CN1C(=O)NC(CC(C)C)C1=O (stereo not given)	>57	-4.1%
CCN(CC)S(=O)(=O)c1cccc(-c2nnc(SCc3ncc(-c4ccccc4)o3)n2C)c1	>57	-5.0%
O=C(CSc1nnc(-c2cccnc2)n1Cc1ccco1)c1ccc(Br)cc1	·	-3.7%
O=C(CSc1nc(Nc2ccccc2)nc(N2CCOCC2)n1)N1CCc2ccccc21	>57	9.4%
COc1cc(NC(=O)c2nnn(Cc3ccc(SC)cc3)c2N)cc(OC)c1	>57	?
Cn1c(=N)c(S(=O)(=O)c2ccc(Cl)cc2)cc2c(=O)n3ccccc3nc21	>57	-4.1%
O=C(CCCN1CCC2(CC1)C(=O)N(CCc1ccc(N=C=S)cc1)CN2c1ccccc1)c1ccc(F)cc1	>57	?
C[C@@]12C=CC(=O)C=C1CC[C@@H]1C2=CC[C@]2(C)[C@@H]1CC[C@H]2C(=O)CN1CCN(c2cc(N3CCCC3)nc(N3CCCC3)n2)CC1	i	15.8%
CCn1nnnc1SCC(=O)c1ccc(NC(C)=O)cc1	>57	10.2%
COc1ccccc1C1/C(=C(\O)c2c(C)nc3c(C)cccn23)C(=O)C(=O)N1CCCN(C)C (stereo not given)	>57	-22.0%
Cc1cc(NC(=O)CSc2ccc3nnc(-c4cccc(F)c4)n3n2)no1	>57	-2.3%
O=C(Nc1cccc(NS(=O)(=O)c2ccc(S(=O)(=O)NC3CC3)cc2)c1)c1ccccn1	>57	-6.0%
CCOC(=O)C(C)Oc1ccc(=O)n(-c2ccccc2)n1 (stereo not given)	>57	-7.8%
CCc1nc(SCC(=O)N2CCN(C(=O)c3ccco3)CC2)c2c3c(sc2n1)CCCC3	>57	9.7%
COCCNC(=O)[C@H](C)/C=C(\c1cccnc1)C(NC(=O)OCc1ccccc1)c1ccc(C(=O)OC)cc1 (stereo not given in full)	·	-4.8%
Cc1cc(C(=O)Nc2nnc(C3CCCCC3)s2)no1	>57	0.6%
CCc1nnc(SCc2ccc(OC(C)C)cc2)n1N	>57	-7.9%
Cc1ccc(OC[C@H](O)[C@H](C)NC(C)C)c2c1CCC2	>57&>57	?
CC(C)[C@H](NC(=O)NC1CCCc2ccccc21)C(=O)O (stereo not given in full)	>57	3.5%
Nc1nc(SCc2ccc(Cl)cc2)ns1	·	?
COc1ccccc1N1CCN(C(=O)Cn2nc(C(F)(F)F)c3c2CCC3)CC1	>57	-10.4%
CC(=O)N(Cc1cccs1)C1CCOC(C)(C)C1 (stereo not given)	>57	-1.7%
COc1ccc(OC)c(Nc2ncnc3c2cnn3-c2cccc(C)c2)c1	>57	-25.3%
Cn1c(=O)c(CCc2ccccc2)nc2cnc(Nc3ccccc3)nc21	>57	?
OCC(C#CCN1CCCCC1)NCc1ccccc1 (stereo not given)	>57	-24.9%
O=c1cc(Nc2ccc3c(c2)OCO3)[nH]c(=O)n1-c1ccc(Br)cc1	>57	-28.0%
COc1ccc(S(=O)(=O)Nc2ccccc2C(=O)NCc2ccco2)cc1	>57	4.1%
CC(C)OC(=O)C1C2C=CC3(CN(CC4CCCO4)C(=O)C13)O2 (stereo not given)	>57	?
COc1ccc2[nH]c(C(=O)O)c(NS(=O)(=O)c3ccc(Cl)s3)c2c1	>57	·
